miR-21 reporter: miR-21 reporter, rising signal; HeLa miR-21 FLuc reporter, luciferase, 48 h; Potency, µM (series often up to 38.3 µM), for inactives: top-dose reporter change, positive = more light; 340,000 tested, under 10 active; AID 2288; active = well fitted rising curve with a large enough effect; inconclusive = small, poorly fitted or top-dose-only effect; inactive = no such curve, though single readings can be large or run the other way;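 also: % of control where 0% means no effect; miR-21 action dims this reporter so a rising signal means less miR-21 action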
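Using DMEM plus 10% FBS, HeLa miR-21-FLuc cells are incubated with test compounds (final up to about 40uM) for 48 hours; firefly luciferase signal is then imaged following reagent-mediated lysis.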
Rango release inh: inhibition of RanGTP-driven Rango-importin beta dissociation; Biochemical FRET Rango-importin beta, RanGTP-induced dissociation; Potency, µM (highest dose often 46.1 µM), for the others: at the highest dose activity change, negative = inhibition; 340,000 tested, 0.071% active; AID 540253; active means falling FRET ratio curve, often poorly fitted, with flat reads before Ran was added; inconclusive means other falling curves, or compound fluorescence or quenching; inactive means flat or rising ratio curve;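 also: potency is read from the fitted curve at half-maximal effect; % of control where 0% means no effect; nearly all actives have a fitted effect of over 45% in size; -100% = wells without RanGTP and RCC1; the record marks most hits as doubtful in a second field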
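Recombinant Rango FRET biosensor (EYFP–snurportin 1 IBB–cerulean CFP10) at 0.1 uM premixed with 0.25 uM importin beta in PBS, 1 mM DTT, 0.02% Tween-20, 0.1% BSA. Compound added 5 min; RanGTP-RCC1 (0.6 uM Ran, 2 mM GTP, 0.2 uM RCC1) then triggers release, read at 45 min.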
GLA inh pH 4.5: blocks human alpha-galactosidase A at pH 4.5. purified enzyme, 4-MU-alpha-Gal fluorescence, pH 4.5. 230,000 tested, under 10 active. AID 1467. P06280. activity change, negative = inhibition, % at 105 µM; inconclusive = small, poorly fitted or top-dose-only inhibition, or a rising curve; inactive = flat fitted curve, though single readings scatter; no compound was filed as active;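 also: 0% = full activity with enzyme and -100% = basal without enzyme; dose as in the result columns while the protocol names 77 µM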
Target sequence (P06280 whole entry, looked up): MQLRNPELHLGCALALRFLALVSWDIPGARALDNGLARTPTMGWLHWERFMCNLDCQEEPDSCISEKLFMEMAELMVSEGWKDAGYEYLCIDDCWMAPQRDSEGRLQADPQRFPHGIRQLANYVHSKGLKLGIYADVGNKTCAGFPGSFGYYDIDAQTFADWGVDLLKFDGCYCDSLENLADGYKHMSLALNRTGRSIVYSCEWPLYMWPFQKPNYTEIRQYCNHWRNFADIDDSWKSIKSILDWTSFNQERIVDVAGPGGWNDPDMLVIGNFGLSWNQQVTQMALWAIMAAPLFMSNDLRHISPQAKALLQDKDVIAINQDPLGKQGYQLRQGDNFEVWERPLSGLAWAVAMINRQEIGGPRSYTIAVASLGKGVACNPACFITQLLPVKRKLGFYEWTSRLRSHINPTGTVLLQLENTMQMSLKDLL
Rango-impB inh: prevents formation of the Rango-importin beta complex; Q14974; Rango CFP/YFP FRET sensor + importin beta, 45 min; Potency, µM (series often up to 92.2 µM), inactives show top-dose inhibition of complex formation; 340,000 tested, 0.031% active; active = rising FRET ratio curve, often small or poorly fitted; inconclusive = mostly compound fluorescence or quenching in the first reads; inactive = flat curves in all reads;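 also: potency is read from the fitted curve at half-maximal effect; 0% = DMSO wells and 100% = buffer wells lacking importin beta; nearly all actives have a fitted effect of over 15% in size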
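FRET biosensor (snurportin 1 IBB flanked by EYFP and cerulean), 50 nM, with compound 5 min, then 0.125 microM importin beta in PBS, 1 mM DTT, 0.02% Tween-20, 0.1% BSA. CFP/YFP ratio read after 45 min at room temperature; pre-read flags interference.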
* marks the source's active call; other numbers are inactive results; [ ] = another dose, or the depositor's remark. An excerpt (hit frequency here may not be typical).

Screening Cc1onc(-c2ccc(Cl)cc2)c1-c1ccnn1S(=O)(=O)c1ccc(Cl)cc1 returned miR-21 reporter -1%, Rango release inh -5%, GLA inh pH 4.5 -29 and Rango-impB inh 5.3%.
`COc1cccc(/C=N/NC(=O)c2ccc(=O)[nH]n2)c1O` gave miR-21 reporter -7%, Rango release inh -13%, GLA inh pH 4.5 -11 and Rango-impB inh 5.7%.
`Cc1ccc(Oc2ccc(OCC(=O)NC3CCS(=O)(=O)C3)cc2)cc1` (centres undefined) gave miR-21 reporter 18%, Rango release inh 3% and Rango-impB inh 0.1%.
Screening CCC(=O)OCCn1c(=O)c2cc3c(=O)n(CCOC(=O)CC)c(=O)c3cc2c1=O returned miR-21 reporter -4%, Rango release inh -3%, GLA inh pH 4.5 7 and Rango-impB inh -2.5%.
For CCCC(c1nnnn1CS(=O)(=O)c1ccc(C)cc1)N1CCN(CC)CC1 (centres undefined) the results were miR-21 reporter 0%, Rango release inh -9%, GLA inh pH 4.5 2 and Rango-impB inh 1.6%.
NC(=O)C1Cc2ccccc2CN1S(=O)(=O)c1ccc(Cl)s1 (centres undefined) was read as miR-21 reporter -2%, Rango release inh -21% and Rango-impB inh -0.6%.
N#CC(C(=O)NCc1ccco1)c1nc2ccccc2nc1N1CCOCC1 (centres undefined) was read as miR-21 reporter -7%, Rango release inh inconclusive, GLA inh pH 4.5 -13 and Rango-impB inh inconclusive.
Screening COC(=O)c1ccccc1NC(=O)C1CCCCC1C(=O)O (centres undefined) returned miR-21 reporter 1%, Rango release inh -1%, GLA inh pH 4.5 5 and Rango-impB inh 0.3%.
For CC1(C)SC2c3ccccc3C(=O)N2[C@@H]1C(=O)NCc1ccco1 (some centres undefined) the results were miR-21 reporter -7%, Rango release inh -1%, GLA inh pH 4.5 3 and Rango-impB inh 1.0%.
CCCc1cc(=O)oc2cc(C)cc(OC(C)C(=O)NCCCn3ccnc3)c12 (centres undefined) was read as miR-21 reporter -6%, Rango release inh -11% and Rango-impB inh -2.2%.
Screening CCC1CCCCN1CCCNC(=O)COc1cc(=O)n(C)c2ccccc12 (centres undefined) returned miR-21 reporter 1%, Rango release inh 0%, GLA inh pH 4.5 2 and Rango-impB inh -0.4%.
`Cc1nc2nc(SCC(=O)c3cccc([N+](=O)[O-])c3)[nH]c2cc1Br` gave miR-21 reporter -42%, Rango release inh -12%, GLA inh pH 4.5 -1 and Rango-impB inh -0.7%.
For CCCCn1c(=O)c(CCC(=O)OCC(=O)Nc2ccc(C)c(Cl)c2)nc2ccccc21 the results were miR-21 reporter 2% and GLA inh pH 4.5 -16.
`CCCCC(CC)C1OCC(CN2CCCC2)O1` (centres undefined) gave miR-21 reporter 1%, Rango release inh -2%, GLA inh pH 4.5 7 and Rango-impB inh -1.3%.
Cc1ccc(S(=O)(=O)N2CCOCC2)cc1NC(=O)COC(=O)C1=COCCO1 was read as Rango release inh inconclusive and Rango-impB inh -1.7%.
CCOC(=O)CNC(=O)Cn1cnc2c(cnn2-c2ccc(C)cc2)c1=O was read as miR-21 reporter -2%, Rango release inh -7% and Rango-impB inh -0.6%.
For CN1CCN(c2ccccc2NC(=O)c2cc(Br)ccc2Cl)CC1 the results were miR-21 reporter -2%, Rango release inh 1%, GLA inh pH 4.5 -5 and Rango-impB inh -0.2%.
For Cc1ccc(C(=O)N/N=C/c2ccc3c(c2)OCO3)o1 the results were miR-21 reporter -54%, Rango release inh inconclusive, GLA inh pH 4.5 -4 and Rango-impB inh -2.8%.
For O=C(O)CCCC(=O)Nc1cc([N+](=O)[O-])ccc1O the results were miR-21 reporter 0%, Rango release inh -2%, GLA inh pH 4.5 0 and Rango-impB inh 5.9%.
Screening CCCOc1cc(C)c(S(=O)(=O)n2nnc3ccccc32)cc1C returned miR-21 reporter -7%, Rango release inh -7%, GLA inh pH 4.5 6 and Rango-impB inh 1.5%.
For CC(NC(=O)c1ccccc1)C(=O)NNC(=O)c1ccccc1Cl (centres undefined) the results were Rango release inh 19% and Rango-impB inh 0.9%.
`CCc1cccc(NC(=O)CCC(=O)O)c1` gave miR-21 reporter -6%, Rango release inh -13%, GLA inh pH 4.5 -10 and Rango-impB inh 2.2%.
Screening Cn1c(=O)c2c(nc(CN3CCC(C(N)=O)CC3)n2CCc2ccccc2)n(C)c1=O returned miR-21 reporter -6%, Rango release inh 14%, GLA inh pH 4.5 -11 and Rango-impB inh -0.7%.
Screening C#CCOCCOCCOCCNc1nc(N2CCN(C(=O)[C@H]([C@@H](C)CC)n3cc([C@@H](N)CO)nn3)CC2)nc(N2CCN(C(=O)[C@H](CCCCN)n3cc([C@@H](N)CO)nn3)CC2)n1 returned Rango release inh 1% and Rango-impB inh 2.6%.
For CCOC(=O)c1c(C)[nH]c(C(=O)OCc2ccc(C)cc2)c1C the results were Rango release inh -1% and Rango-impB inh 0.5%.
CC(C)c1ccc(Nc2ncccc2C#N)cc1 was read as miR-21 reporter -40%, Rango release inh 10%, GLA inh pH 4.5 1 and Rango-impB inh -0.4%.
Cc1nc2c3ccccc3nc(NNC(=O)CCC(=O)NC3CCCC3)n2n1 was read as miR-21 reporter -1%, Rango release inh -10%, GLA inh pH 4.5 0 and Rango-impB inh -1.3%.
`C#CCOc1ccc(Br)cc1C(c1c(C)[nH][nH]c1=O)c1c(C)[nH][nH]c1=O` gave miR-21 reporter -3%, Rango release inh 11% and Rango-impB inh -3.2%.
For O=c1[nH]c(SCc2ccc(Cl)cc2)nc2[nH]ncc12 the results were miR-21 reporter -58%, Rango release inh -10%, GLA inh pH 4.5 -5 and Rango-impB inh -5.5%.
Cc1ccccc1S(=O)(=O)N1[C@@H](c2cccc(Cl)c2)C(C(=O)O)=CC[C@H]1c1ccc(Cl)cc1 was read as Rango release inh -1% and Rango-impB inh -2.4%.
`CC(C)CN(C(=O)COC(=O)CSc1ccc([N+](=O)[O-])cc1)C1CCS(=O)(=O)C1` (centres undefined) gave Rango release inh -1% and Rango-impB inh 0.1%.
Screening O=C(Nc1cccc(S(=O)(=O)N2CCCC2)c1)C1CCCN1C(=O)c1cccs1 (centres undefined) returned miR-21 reporter 1%, Rango release inh 5%, GLA inh pH 4.5 9 and Rango-impB inh 0.5%.
`Cc1ccc2cc(CN(CCN(C)C)C(=O)Nc3ccc(Cl)cc3)c(=O)[nH]c2c1` gave miR-21 reporter -19%, Rango release inh -17%, GLA inh pH 4.5 7 and Rango-impB inh -3.8%.
Screening CC(=O)c1ccc(OCC(=O)Nc2ccc3c(c2)CCC3)cc1 returned miR-21 reporter -14%, Rango release inh -1%, GLA inh pH 4.5 5[21.1 µM] and Rango-impB inh 0.8%.
Screening N#C/C(=C/c1ccc(Sc2nc3ccccc3[nH]2)o1)c1cccc(F)c1 returned miR-21 reporter 13%, Rango release inh inconclusive, GLA inh pH 4.5 -6 and Rango-impB inh inconclusive.
CCC(C)n1c(C)cc(=O)n1C(C)CC (centres undefined) was read as Rango release inh 1% and Rango-impB inh -1.8%.
`COCCNC(=O)c1cccc2c1C(=O)c1ccc(N3CCOCC3)cc1S2(=O)=O` gave Rango release inh -6% and Rango-impB inh 46µM*.
Screening CN(CCOc1ccccc1)C(=O)c1cc(S(=O)(=O)N2CCOCC2)ccc1Cl returned Rango release inh 2% and Rango-impB inh -0.2%.
`CCCc1cc(=O)[nH]c(SCC(=O)Nc2ccc(C)c(S(=O)(=O)N3CCCCC3)c2)n1` gave Rango release inh -6% and Rango-impB inh -3.6%.
For CC(C)(C)c1ccccc1NC(=O)N1CCNC(=O)C1CC(=O)Nc1ccc(F)cc1 (centres undefined) the results were miR-21 reporter 0%, Rango release inh 2% and Rango-impB inh -2.5%.

Of the compounds above, these have fluorine.
Screening N#C/C(=C/c1ccc(Sc2nc3ccccc3[nH]2)o1)c1cccc(F)c1 returned miR-21 reporter 13%, Rango release inh inconclusive, GLA inh pH 4.5 -6 and Rango-impB inh inconclusive.
For CC(C)(C)c1ccccc1NC(=O)N1CCNC(=O)C1CC(=O)Nc1ccc(F)cc1 (centres undefined) the results were miR-21 reporter 0%, Rango release inh 2% and Rango-impB inh -2.5%.

Further results follow.
For Nc1nccnc1C(=O)OCC(=O)NC1CCCc2ccccc21 (centres undefined) the results were Rango release inh -7% and Rango-impB inh 1.8%.
`CCOC(=O)CC1C(=O)NCCN1S(=O)(=O)c1ccccc1Cl` (centres undefined) gave miR-21 reporter -2%, Rango release inh 1%, GLA inh pH 4.5 -27 and Rango-impB inh 0.1%.
`COc1ccc(OC)c(CCNC(=O)C(=O)Nc2ccc3nc4n(c(=O)c3c2)CCCCC4)c1` gave miR-21 reporter 5%, Rango release inh 0%, GLA inh pH 4.5 -4 and Rango-impB inh 0.5%.
`Cn1c(C2CCCCC2)nc2ccccc21` gave miR-21 reporter -26%, Rango release inh -6% and Rango-impB inh 0.9%.
For CCC(NC(=O)c1ccccc1NC(=O)C(C)(C)C)C(=O)N1CC(C)OC(C)C1 (centres undefined) the results were Rango release inh 1% and Rango-impB inh -3.4%.
For COc1ccc(CNC(=O)C[C@H]2C[C@H](C(=O)N3CCCCC3)[C@@]3(C)c4[nH]c5ccc(Cl)cc5c4CCN3C2=O)cc1OC the results were Rango release inh 1% and Rango-impB inh -0.3%.
Screening O=c1c2ccccc2nc2n1CCS2 returned miR-21 reporter -10%, Rango release inh -3%, GLA inh pH 4.5 6 and Rango-impB inh -1.3%.
O=C(O)CCc1ccc(-c2ccccc2)n1Cc1ccco1 was read as miR-21 reporter 0%, Rango release inh -15%, GLA inh pH 4.5 -11 and Rango-impB inh -3.1%.
For O=C(O)c1cc(S(=O)(=O)N2CCN(S(=O)(=O)c3ccc4ccccc4c3)CC2)ccc1Br the results were Rango release inh -1% and Rango-impB inh -1.5%.
Screening COc1ccc(Cn2c(N)c(S(=O)(=O)c3cccs3)c3nc4ccccc4nc32)cc1 returned miR-21 reporter -13%, Rango release inh -18%, GLA inh pH 4.5 12 and Rango-impB inh inconclusive.
`O=C(COc1ccc(F)cc1Br)NCc1nnc2ccccn12` gave Rango release inh 3% and Rango-impB inh -0.4%.
`Cn1nc(-c2ccc(Cl)cc2)cc1NC(=O)CCCC(=O)O` gave miR-21 reporter -3%, Rango release inh 1%, GLA inh pH 4.5 5 and Rango-impB inh -0.1%.
CCNC(=S)NNC(=O)c1cc(-c2ccc(OCC)cc2)nc2ccccc12 was read as miR-21 reporter inconclusive, Rango release inh 1%, GLA inh pH 4.5 -3 and Rango-impB inh 1.8%.
N#C/C(=C\c1cccs1)C(=O)NCC1CCCO1 (centres undefined) was read as miR-21 reporter -42%, Rango release inh -8%, GLA inh pH 4.5 -7 and Rango-impB inh 0.5%.
Screening CC(=O)N1CCC(C(=O)Nc2ccccc2)(N(Cc2ccccc2)C(=O)c2cccnc2)CC1 returned miR-21 reporter 0%, Rango release inh 4%, GLA inh pH 4.5 4 and Rango-impB inh -0.1%.
For COC(=O)c1c(NC(=O)C2=COCCO2)sc(C)c1C the results were Rango release inh -10% and Rango-impB inh 3.1%.
`CCOCCCNc1nc(C)nc2c1nnn2Cc1c(F)cccc1Cl` gave miR-21 reporter 13%, Rango release inh -1%, GLA inh pH 4.5 -5 and Rango-impB inh -3.6%.
`COC(=O)c1sccc1NC(=O)Nc1ccccc1F` gave miR-21 reporter -5%, Rango release inh 5% and Rango-impB inh 4.8%.
O=C(CCc1ccccc1)N1CCN(c2ccccn2)CC1 was read as miR-21 reporter -19%, Rango release inh -10%, GLA inh pH 4.5 3 and Rango-impB inh 0.0%.
For CCN(CCS(=O)(=O)c1ccc(Br)cc1)Cc1nc2ccccc2c(=O)[nH]1 the results were Rango release inh -3% and Rango-impB inh -0.2%.
N#Cc1cc2cc3c(cc2nc1N1CCOCC1)OCO3 was read as miR-21 reporter -1%, Rango release inh inconclusive, GLA inh pH 4.5 10 and Rango-impB inh inconclusive.
`Cc1ccc2c(Cl)cc(Cl)c(OCC(=O)Nc3cccc(S(N)(=O)=O)c3)c2n1` gave miR-21 reporter -8%, Rango release inh -5%, GLA inh pH 4.5 -2 and Rango-impB inh -1.2%.
O=C(COC(=O)CNC(=O)c1ccccc1)NCCc1ccccc1 was read as miR-21 reporter 4%, Rango release inh -6%, GLA inh pH 4.5 6 and Rango-impB inh -4.7%.
`O=C1Cc2cc(S(=O)(=O)NCc3ccc(F)cc3)ccc2N1` gave Rango release inh 1% and Rango-impB inh 0.6%.
